AID504770 = growth inhibitors of E. coli YBA685 in a screen for V. cholerae RctB (chromosome II replication) inhibitors; 130,000 compounds, 0.27% hits; z-score (test concentration not listed); E. coli YBA685 rctB-dependent plasmid, OD600 growth, 3 h; stronger effect = lower value;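 active = z-score under -2 on both plates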;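 note: wells of about 30 µL received 100 nL stock; score is relative to mean and SD of the test wells; the first replicate is given; strong numbers were not always called active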
CapD inh = CapD enzyme inhibition; purified CapD enzyme, fluorescence intensity read-out; stronger effect = lower value; some hits fall short of the stated cut; z-score (test concentration not listed); 140,000 compounds, 0.23% hits; AID 492967;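 active = z-score under -4 in either of two replicates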;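 note: stock transfer was 100 nL into about 40 µL; score is relative to mean and spread of the plate; one replicate is shown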
The depositor's hits bear a star; / = not tested or not shown. No enrichment for hits, and some 0.39% of all compounds hit somewhere here.

SMILES	AID504770	CapD inh
CN(C(=O)c1nn(-c2ccccc2)c(=O)c2ccccc12)C1CCS(=O)(=O)C1 (stereo not given)	-3.6	/
COCCNc1nc(SCC(=O)NCCC(C)C)nc2ccccc12	/	2.6
Cc1ccccc1NC(=O)CC(C)C	0	-0.055
COc1ccccc1N1C(=O)C2C3c4ccc(C(C)(C)C)cc4C(c4ccc(C(C)(C)C)cc43)C2C1=O (stereo not given)	/	-0.27
CCOC(=O)c1oc2cc(O)cc(O)c2c(=O)c1-c1ccc(OC)c(OC)c1	0.6	/
CC(Oc1ccccc1)c1ccnc(N)n1 (stereo not given)	-0.95	-0.61
C=CCSc1nc2c(c(=O)n1Cc1ccco1)C1(CCCCC1)Cc1ccccc1-2	-0.3	-0.83
C=CCN(c1ccccc1)S(=O)(=O)c1cccc(C(=O)N2CCN(c3ncccn3)CC2)c1	0.35	/
CCOC(=O)c1cc(C(C)(C)C)nc(SC)c1C#N	0.3	1.8
CN(C)C1(CNC(=O)Cc2n[nH]c(=O)c3ccccc23)CCCCC1	0.75	/
CC(C)(C)c1ccc(CSc2nnc(-c3ccco3)n2-c2ccccc2)cc1	-0.5	/
COc1cc(NC(=O)CSc2nc3[nH]ncc3c(=O)n2-c2ccc(Cl)c(C)c2)cc(OC)c1OC	/	-0.7

Overlap with the part before: 7 entries; new compounds follow.
SMILES	AID504770	CapD inh
CC(Oc1ccccc1)c1ccnc(N)n1 (stereo not given)	-0.95	-0.61
C=CCSc1nc2c(c(=O)n1Cc1ccco1)C1(CCCCC1)Cc1ccccc1-2	-0.3	-0.83
C=CCN(c1ccccc1)S(=O)(=O)c1cccc(C(=O)N2CCN(c3ncccn3)CC2)c1	0.35	/
CCOC(=O)c1cc(C(C)(C)C)nc(SC)c1C#N	0.3	1.8
CN(C)C1(CNC(=O)Cc2n[nH]c(=O)c3ccccc23)CCCCC1	0.75	/
CC(C)(C)c1ccc(CSc2nnc(-c3ccco3)n2-c2ccccc2)cc1	-0.5	/
COc1cc(NC(=O)CSc2nc3[nH]ncc3c(=O)n2-c2ccc(Cl)c(C)c2)cc(OC)c1OC	/	-0.7
NC(=O)NC(CC(=O)Nc1cccc(-c2nnc3n2CCCCC3)c1)c1ccccc1Cl (stereo not given)	-1.5	/
Fc1ccccc1-c1nn[nH]n1	/	0.06
NCCSSCCN	-0.25	0.085
CC(=O)C1=NN(c2ccccc2[N+](=O)[O-])C2(S1)c1ccccc1C(c1ccc(C)cc1)=NN2c1ccccc1 (stereo not given)	/	-0.085
CN(C)CCCNCc1cccn1C	0.1	0.015
O=C(N/N=C/c1ccco1)c1ccc([N+](=O)[O-])o1	/	-2.7
O=C(CSc1nnc2ccccn12)Nc1ccc(Br)cc1	/	8.5
CCC(CC)NC(=O)Cn1[nH]c(=O)c2ccccc2c1=O	-0.85	/
O=C(Oc1ccc(N(Cc2ccco2)C(=O)Cn2cnc3ccccc3c2=O)cc1)c1ccccc1F	-0.4	/
Cc1ccc(F)cc1NC(=O)Cc1ncc(C(F)(F)F)cc1Cl	0.45	0.5
CNc1nc(Oc2ccc(=O)[nH]n2)nc(N(C)C)n1	-2	-0.56
C=CCN1C(=S)SC2CS(=O)(=O)CC21C (stereo not given)	-0.9	0.31
CCn1c(=O)cc(SCC(=O)NC2CCCc3ccccc32)c2ccccc21 (stereo not given)	-0.25	0.89
COc1cc(OC)cc(-c2nc3ccccc3c(=O)n2OC(=O)c2cc(Cl)ccc2OC)c1	/	-0.53
O=C(CSc1nc2ccccc2c(=O)n1-c1ccccc1)NCCCN1CCOCC1	-1.9	/
CCN(CC)CCn1c(NCc2ccccc2OC)nc2ccccc21	0.35	0.68
Cc1cc(C(=O)N(c2ccccc2)C(C)C2CC2)c(Cl)cc1Cl (stereo not given)	-0.4	-0.29
Cc1cc(C(=O)NNC(=O)c2cccc(C(=O)c3ccccc3)c2)nn1C	/	0.33
Cc1cccc(OCCCC(=O)Nc2nnc(C(C)C)s2)c1	/	0.085
CCC(=O)N1CCc2cc(S(=O)(=O)CCC(=O)N(C)c3ccc(OC)cc3OC)ccc21	-0.75	0.35
COc1ccc(/C=N/n2cnc3c([nH]c4ccc(OC)cc43)c2=O)cc1	-0.15	-0.73
COC(=O)CCc1nc(OC)cc(OC)n1	/	-0.81
COc1cc(NC(=O)c2cnccn2)cc(OC)c1	/	-0.065
Cc1cc(C(=O)NCc2csc(-c3cccs3)n2)nn1C	1	49
CC(C)(/C=N/Nc1nc2ccccc2o1)CO	0.25	/
O=C(CNc1ccccc1OC(F)F)N1CCc2ccccc21	-0.5	/
CC(C)(C)/C(O)=C/c1nc2ccccc2oc1=O	-0.5	-0.16
CCC1=Nc2cc(C(=O)N3CCC4(CC3)OCCO4)ccc2Sc2ccccc21	-0.9	3.6
O=c1cc(CN2CCN(c3ccccc3)CC2)occ1OC/C=C/c1ccccc1	-0.7	/
Cc1c(/C(Cc2ccccc2)=N/O)c2ccccc2n1C	-0.9	1.7
NC(N)=NC(N)=Nc1ccc(I)cc1	/	0.08
Cc1cccc(-c2cc(C(=O)NCc3cccnc3)c3ccccc3n2)c1	/	12
CC(C)n1c(CCNC(=O)c2ccccc2)nc2ccccc21	-0.85	-0.47
CC1=N/C(=C2/C=C(c3cccs3)Oc3ccccc32)C(=O)O1	0.55	-0.24
O=C(Cn1ncc2c(=O)oc3ccccc3c21)NCC1(c2ccccc2)CCCC1	2	-0.38
COc1cc2c(cc1NS(C)(=O)=O)c1c(n2S(C)(=O)=O)CCC1	-0.85	/
CC1(C)CC(N2CCN(C3CC(C)(C)NC(C)(C)C3)CC2)CC(C)(C)N1	-1.1	0.2
COc1cc(CN(C)C)c(O)c(CN(C)C)c1	-1.5	11
N#CC1(NC(=O)COC(=O)C2CCN(C(=O)Nc3ccccc3)CC2)CCCCC1	-0.25	/
CC1CCCCN1C(=O)COC(=O)c1n[nH]c2ccccc12 (stereo not given)	2.5	/
COc1ccc2nc(-n3c(C)ccc3C)sc2c1	-0.6	2.9
COCC(=O)Nc1nc(-c2ccccc2)cs1	2	/
CN(c1ccc(C(=O)O)cc1)S(C)(=O)=O	-0.2	/
COc1ccc2c(c1)C(=NNC(=O)c1ccncc1)c1cc(OC)ccc1-2	/	-0.49
Cc1cc(C)c2oc3nc(N)c(C#N)cc3c(=O)c2c1	-0.3	3.9
COc1ccccc1C1CC(c2ccc(Br)cc2)=NN1S(=O)(=O)c1ccccc1 (stereo not given)	/	0.21
C=CCn1c(=S)[nH]c2cc(C(=O)O)ccc2c1=O	-0.3	/
COc1ccccc1Nc1ncnc2c1cnn2-c1ccc(C)cc1C	/	-0.3

Record cards, from the list above. Screens in order: AID504770	CapD inh
NC(N)=NC(N)=Nc1ccc(I)cc1 across the screens: /	0.08
NC(=O)NC(CC(=O)Nc1cccc(-c2nnc3n2CCCCC3)c1)c1ccccc1Cl (stereo not given) across the screens: -1.5	/
CC1=N/C(=C2/C=C(c3cccs3)Oc3ccccc32)C(=O)O1 across the screens: 0.55	-0.24
COc1ccccc1C1CC(c2ccc(Br)cc2)=NN1S(=O)(=O)c1ccccc1 (stereo not given) across the screens: /	0.21
C=CCSc1nc2c(c(=O)n1Cc1ccco1)C1(CCCCC1)Cc1ccccc1-2 across the screens: -0.3	-0.83

Next entries
SMILES	AID504770	CapD inh
NC(=O)C1CCN(C(=O)CSCc2cnn(-c3ccccc3)c2-n2cccc2)CC1	-0.3	-0.8
O=C(O)Cn1cnc2scc(-c3cccs3)c2c1=O	0.6	/
O=S(=O)(NCc1ccccc1F)c1ccccc1Br	/	-0.7
O=C(c1cccs1)n1nccc1-c1cccs1	0.6	21
Cc1oc2c(c1C(=O)N1CCCCC1)C(=O)c1ccccc1C2=O	1.4	-0.23
O=C(CCN1N=C(c2ccccc2)CCC1=O)NCc1ccccc1	0.85	0.9
O=C1CN(C(=S)NCCN2CCOCC2)c2ccccc2N1	-0.8	/
O=C(CSCc1cnn(-c2ccccc2)c1-n1cccc1)NCCC1=CCCCC1	-1.4	-0.53
Cc1c(C)n(CC(O)CNC(C)c2ccccc2)c2ccccc12 (stereo not given)	-0.6	-0.48
Cc1c(C(=O)Nc2ccc(Oc3ccccc3)cc2)sc2ncn(CC(=O)Nc3cccc(C(F)(F)F)c3)c(=O)c12	/	-0.37
COc1ccc(C(C#N)c2ncc(C(F)(F)F)cc2Cl)cc1OC (stereo not given)	/	-0.67
CCn1c(SCC(=O)c2ccc(C)cc2)nnc1C1CC1	-0.35	/
Cn1nc(C(F)(F)F)c(-c2cccc(C(F)(F)F)c2)c1NC(=O)c1nccnc1C(=O)O	0.45	0.63
COC(=O)CSCc1nc(N)nc(Nc2ccccc2C)n1	0.7	/
O=C(Nc1ccccc1C(=O)O)c1cccs1	-0.4	-0.21
Cc1ccc(C)c(NC(=O)C(NC(C)C)c2ccccc2)c1 (stereo not given)	-0.6	/
COc1ccc(NC(=O)CCSc2nc(C)cs2)cc1	0.05	/
CSc1nc(-c2ccc(C(F)(F)F)cc2)nc(N)c1C#N	-1.1	0.26
COc1ccc(NC(=O)c2ccc3ncsc3c2)cc1	-0.25	1.4
CCN(C(=O)/C=C/c1ccco1)c1nc2c(C)cccc2s1	-0.1	/
Cc1oc(-c2cccc(F)c2)nc1CSCC(=O)O	-0.35	-1.2
Cc1ccc2nc3sc(C#N)c(N)c3cc2c1	-1.9	/
O=C1Nc2ccccc2/C1=N\n1cnc2ccccc21	-0.85	/
COC(=O)c1ccc(C2NC(=O)NC3=C2C(=O)CC(C)(C)C3)cc1 (stereo not given)	-0.1	/
O=C1NC(=O)C(=Cc2ccccc2Oc2ccc(Cl)cc2Cl)C(=O)N1	/	-0.15
COc1ccc(NC(=O)COc2nc(N(C)C)nc(N(C)C)n2)cc1	0.75	0.81
C=CCOn1c(=O)c(-c2ccc(C)cc2)[n+]([O-])c2ccccc21	-0.5	0.32
CNc1nc(-c2ccc(OC)cc2)c(C)s1	0.25	-0.56
COc1ccc(OC)c(/C=C/C(=O)N(C)CCOc2ccccc2)c1	-0.35	/
CCOC(=O)C1=C(C)NC2=C(C(=O)C(C(=O)OCC)C(c3ccc(OC)cc3)C2)C1c1cccc(Br)c1 (stereo not given)	/	5.3
C#C[C@]1(O)CCC2C3CCc4cc(O)ccc4C3CC[C@@]21C (stereo not given in full)	0.5	-0.015
O=C(CN1CSCC1=O)Nc1ccc2nc(N3CCOCC3)sc2c1	0.5	/
COc1cccc(S(=O)(=O)NCc2ccc(C(=O)N3CCCC3)cc2)c1	0.1	-0.12
COc1ccc2c(CNCc3ccccc3)c(C(=O)O)[nH]c2c1	0.55	14
C=Cn1cc[n+](CC(=O)c2ccc(C)cc2)c1	2	/
CCOc1ccc2nc(NC(=O)c3ccc(NS(=O)(=O)c4cccs4)cc3)sc2c1	0.65	6.5
COc1ccc(OC)c(/C=C2\C(=O)C3CCN2CC3)c1	-1.4	/
Cc1nc(N2CCCCC2C)c2c(C)c(C(=O)Nc3cnc4ccccc4c3)sc2n1 (stereo not given)	/	0.68
O=C(NCC1COc2ccccc2O1)c1ccc2c(=O)n(Cc3ccc4c(c3)OCO4)c(=S)[nH]c2c1 (stereo not given)	/	0.28
C=CCSc1nnc2n1CCCN2	1.7	-0.73
O=S(=O)(Nc1ccccc1N1CCCCC1)c1ccccc1	1.8	-0.89
Cc1cc(C)n2nc(CNC(=O)Nc3ccccc3C(F)(F)F)nc2n1	1.6	0.3
COc1ccc(NC(=O)CSc2nc3c(cc2C#N)CCC3)cc1	-0.7	0.06
COc1coc(C(=O)O)c1OC	-1.5	/
NCCc1nc2ccccc2[nH]1	-0.9	10
NC(=O)c1ccc(OCC2CCCO2)cc1 (stereo not given)	0.2	/
CCCn1cc(S(=O)(=O)CC(=O)NC2CCCCC2)c2ccccc21	-0.2	-0.15
Cc1ccc(-c2nnc(SCC(=O)n3c4c(c5ccccc53)CCCC4)o2)cc1	/	-0.43
CCSc1nnc(SCC(=O)Nc2ccc(S(=O)(=O)N3CCCC3)cc2)s1	0.2	/
O=C(Nc1ccccn1)C12CC3CC(CC(C3)C1)C2	0.05	/
O=C(CCN1C(=O)C2CC=CCC2C1=O)OCc1ccc(Cl)cc1 (stereo not given)	0.2	/
CNNC(=O)Cc1ccc(OC)c(OC)c1	/	-0.57
CC(C(=O)NCc1ccco1)N1C(=O)c2ccccc2C1=O (stereo not given)	-0.25	/
Cc1cc(C)n2nc(SCC(=O)NC(C)C(C)C)nc2n1 (stereo not given)	0.5	/
CCOC(=O)Nc1ccc2c(CN3C(=O)NC(CC)(CC)C3=O)cc(=O)oc2c1	-0.55	/
O=C1CC(NC(=O)C(F)(F)F)=NN1c1ccccc1	-0.75	-1.1
Cc1cccc(N=C2NC(=O)/C(=C\c3ccc(O)c(Br)c3)S2)c1	/	0.23
CCOC(=O)c1ccc(NC(=O)C(CC(C)C)N2C(=O)C3C4C=CC(C4)C3C2=O)cc1 (stereo not given)	-0.75	0.24
Cc1ccc(NC(=O)Cc2c(O)c3ccccc3[nH]c2=O)cc1	0.7	-0.32
COc1cccc(NS(=O)(=O)c2cc(C(=O)N3CCN(C)CC3)ccc2NCCc2ccc(OC)c(OC)c2)c1	/	0.86

(list continues)
SMILES	AID504770	CapD inh
COc1ccc(Nc2cc(C(=O)NCCC(C)C)c3ccccc3n2)cc1	1	74
CC(C)Nc1nc(-c2ccccc2)nc2ccccc12	-0.2	-0.025
O=C(Cc1ccccc1)NCCSc1ccccc1	0	-0.08
COc1ccccc1/C=C/C=N\N1CCN(c2ccccc2)CC1	-0.85	29
Cc1ccc(S(=O)(=O)c2c(N)n(Cc3ccco3)c3nc4ccccc4nc23)cc1	0.15	/
NS(=O)(=O)c1ccc2nc(NC(=O)c3ccc(S(=O)(=O)N4CCCCC4)cc3)sc2c1	/	10
CSc1nc(N)nc(N2CCSCC2)n1	-0.95	-0.61
COc1ccc(C2CC3(CC(C)(C)NC(=O)N3)Oc3cc(O)ccc32)cc1 (stereo not given)	0.5	/
COc1cccc(NS(=O)(=O)c2ccc3[nH]cc(C(=O)N4CCCCC4C)c(=O)c3c2)c1 (stereo not given)	0.95	0.75

Assay outcomes deposited in PubChem BioAssay by ICCB-Longwood Screening Facility, Harvard Medical School.
